Compound activity as filed in PubChem BioAssay.
HSV augment – enhancers of HSV replication in host cells, fold increase, host cell viability | HSV replication augmentation in cells | maximum fold increase | hit rate 0.005% among 220,000 | AID 1956, 2009;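 active means peak rise of 1.5-fold or more in the series; inconclusive means self-fluorescent or not available for retest; tested in PC3 cells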;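 further: first round at 10 µM; read as green reporter fluorescence; hits show the peak of a series up to 25 µM; 1 = signal of infected wells without compound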
Insulin prom inh – inhibitors of insulin promoter-driven GFP, primary screen, imaging, TRM-6 cells (human fetal islet line), eGFP reporter, cell count | inhibition, % at 2 µM | hit rate 0.9% among 130,000 | reporter expression induced with tamoxifen | AID 1273, 2008;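 active means inhibition above the mean plus 3 SD, with well images judged a real hit on visual review, cut at about 60% in these data, passing the limit was not always enough; inconclusive means inhibition over the cutoff but images rejected on review; inactive means inhibition not above the cutoff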
RGS16-Gao HTS – modulators of RGS16 binding to Galphao, primary screen, biochemical, human proteins, multiplexed bead flow cytometry | Regulator of G-protein signaling 16 (Homo sapiens) + Guanine nucleotide-binding protein … | bead-based flow cytometry RGS16-Galphao binding, fluorescence; actives lie on both sides | binding response (% of control), % at 10 µM | hit rate 0.38% among 220,000;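 active means below 25% or above 175%, edge rows of some plates excepted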;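 further: Galphao activated by GDP with aluminum fluoride before binding; 100% = wells without compound and 0% = beads without RGS; some results beyond the cut were filed as inactive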
Target sequence (O15492 whole entry, looked up): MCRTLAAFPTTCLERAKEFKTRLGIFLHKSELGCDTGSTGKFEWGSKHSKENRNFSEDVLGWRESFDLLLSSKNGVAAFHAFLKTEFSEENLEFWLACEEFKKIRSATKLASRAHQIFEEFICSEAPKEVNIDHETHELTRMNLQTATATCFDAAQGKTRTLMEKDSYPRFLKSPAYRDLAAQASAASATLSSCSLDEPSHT
Target sequence (P09471 whole entry, looked up): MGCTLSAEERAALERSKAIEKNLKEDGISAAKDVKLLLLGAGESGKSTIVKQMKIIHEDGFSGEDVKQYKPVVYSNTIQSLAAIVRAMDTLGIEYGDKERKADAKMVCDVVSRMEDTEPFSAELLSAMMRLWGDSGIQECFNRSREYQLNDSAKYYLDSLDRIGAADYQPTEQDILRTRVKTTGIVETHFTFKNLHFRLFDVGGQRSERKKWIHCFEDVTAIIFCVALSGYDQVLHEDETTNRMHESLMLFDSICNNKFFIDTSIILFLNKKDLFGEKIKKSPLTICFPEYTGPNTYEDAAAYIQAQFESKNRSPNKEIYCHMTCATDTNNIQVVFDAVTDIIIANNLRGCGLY
PKD1 inh – inhibitors of human PKD1 kinase, biochemical, fluorescence polarization; Serine/threonine-protein kinase D1 (Homo sapiens), Q15139; PKD1 kinase fluorescence polarization assay; inhibition, %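 (about 10 µM by stock and volumes)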; hit rate 0.056% among 200,000;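 active means inhibition of 50% or more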;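 further: controls were vehicle for no effect and a reference inhibitor for full effect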
GALR2 ag – GALR2 receptor agonists, primary screen, cell-based; AID 803, 2007; activation, %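 (tested at 5 µM)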; GALR2-expressing cells, agonist activation read-out; hit rate 0.48% among 140,000;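 active means above mean plus 3 SD of all compounds, about 5% in these data, not always enough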;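 further: 0% = vehicle buffer wells and 100% = reference agonist at full effect; tested in CHO reporter cells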
Target sequence (O43603 whole entry, looked up): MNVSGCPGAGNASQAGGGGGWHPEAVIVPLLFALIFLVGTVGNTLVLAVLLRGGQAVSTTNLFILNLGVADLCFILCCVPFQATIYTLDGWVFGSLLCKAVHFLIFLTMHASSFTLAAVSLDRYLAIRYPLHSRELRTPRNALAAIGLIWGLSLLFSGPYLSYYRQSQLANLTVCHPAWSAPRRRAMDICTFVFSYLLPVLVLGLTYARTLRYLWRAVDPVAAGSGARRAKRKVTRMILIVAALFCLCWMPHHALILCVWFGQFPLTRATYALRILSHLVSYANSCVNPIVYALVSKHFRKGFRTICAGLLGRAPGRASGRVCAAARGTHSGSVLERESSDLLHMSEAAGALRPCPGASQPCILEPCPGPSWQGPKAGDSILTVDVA
Insulin prom inh cell count – also measured in Insulin prom inh; calls as there; normalized cell count, %; measured here: cell count, toxicity; reference of the scale not given here;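 cells exposed to compound for 48 h; stained nuclei by imaging scaled within each plate; lower means fewer cells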
HSV augment primary fold – recorded beside HSV augment, whose call it bears; fold increase; compound at 10 µM; measured here: primary screen fold increase 10 uM; tested in PC3 cells;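 GFP signal in the first replicate; 1 = infected wells without compound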
* = called active by the depositor; i = inactive; ? = inconclusive; / = no result given. Hits appear at their usual frequency; about 1.3% have a hit in one of these screens.

Start of the listing, in advance (four entries):
cpd	molecule	HSV augment primary fold	RGS16-Gao HTS	HSV augment	PKD1 inh	GALR2 ag	Insulin prom inh	Insulin prom inh cell count
1	CCSc1nnc(NC(=O)c2nc3nc(C)cc(C)n3n2)s1	0.99	99	i	2	/	/	/
2	Cc1cc(C)c(S(=O)(=O)ON2C(=O)c3ccccc3C2=O)cc1C	0.67	36	i	-2	0.0	-22	99
3	Cc1nnc2ccc(N3CCOCC3)nn12	1.1	77	i	-3	-2.8	3	121
4	CN1CCN(C(=O)c2cnn(-c3ccccc3)c2NC(=O)c2cccs2)CC1	1.1	106	i	12	-1.2	/	/

Results, previewed entries included:
cpd	molecule	HSV augment primary fold	RGS16-Gao HTS	HSV augment	PKD1 inh	GALR2 ag	Insulin prom inh	Insulin prom inh cell count
1	CCSc1nnc(NC(=O)c2nc3nc(C)cc(C)n3n2)s1	0.99	99	i	2	/	/	/
2	Cc1cc(C)c(S(=O)(=O)ON2C(=O)c3ccccc3C2=O)cc1C	0.67	36	i	-2	0.0	-22	99
3	Cc1nnc2ccc(N3CCOCC3)nn12	1.1	77	i	-3	-2.8	3	121
4	CN1CCN(C(=O)c2cnn(-c3ccccc3)c2NC(=O)c2cccs2)CC1	1.1	106	i	12	-1.2	/	/
5	CCOC(=O)N1CCN(C(=O)c2cnn3c(C(F)(F)F)cc(-c4cccs4)nc23)CC1	0.86	104	i	-1	/	/	/
6	COCCNC(=S)N1CCC(c2nc(-c3ccc(N(C)C)cc3)no2)CC1	1	102	i	-2	/	-35	108
7	COc1ccc(-n2cc(CNCC3CCOCC3)c(-c3cccc(F)c3)n2)cc1	0.72	102	i	1	/	/	/
8	Cc1ccc(S(=O)(=O)n2ccc(OC(=O)c3cccs3)n2)cc1	1.1	99	i	6	/	/	/
9	CC(C)(C)[C@@H]1C=C(C(=O)N2CCN(Cc3ccc4c(c3)OCO4)CC2)O[C@H](OCc2ccc(CO)cc2)C1	0.89	94	i	-6	/	/	/
10	CCN1CCN(C(=O)c2ccc(-c3nc4ccccc4s3)s2)CC1	0.87	104	i	-2	/	5	121
11	COc1c(F)c(F)c(C(=O)Nc2cccc(Cl)c2N2CCOCC2)c(F)c1F	1	103	i	-8	-1.7	0	116
12	Cc1ccc(-n2cc(-c3ccccc3)c3c(N4CCN(C)CC4)ncnc32)cc1	0.67	111	i	9	/	58	174
13	CCN(CC)CCn1c(=N)n(CCO)c2ccccc21	1	108	i	-11	0.0	20	106
14	N#CCSc1nc2ccccc2c(=O)n1-c1ccccc1	0.96	78	i	-4	-2.2	13	95
15	Cc1ccc(CC(=O)N2CCN(C(=O)c3ccco3)CC2)cc1	0.76	97	i	2	/	46	101
16	Cc1ccc(C2(c3noc(CN(C)CCCN4CCOCC4)n3)CCCC2)cc1	0.95	75	i	-5	/	/	/
17	O=C(NCc1ccco1)c1cc(S(=O)(=O)N2CCOCC2)ccc1Cl	1	99	i	4	-1.9	/	/
18	Cc1cc(N2CCCC2=O)cc(C)c1CN1C(=O)c2ccccc2C1=O	0.78	109	i	-2	-1.1	-145	70
19	CCOC(=O)CC(NC(=O)c1ccccc1F)c1ccc(C)cc1 (stereo not given)	0.73	105	i	0	/	8	219
20	O=C(CCCOc1ccccc1)N1CCN(c2ccccn2)CC1	0.95	110	i	0	-4.0	38	112
21	COc1ccc(CN2CCNC(=O)C2CC(=O)NCc2cnn(C)c2)cc1OC (stereo not given)	0.96	95	i	-4	/	/	/
22	CC(C)Cc1nnc(NC(=O)CSc2nc(O)c(-c3ccccc3)c(=O)[nH]2)s1	1.2	101	i	-4	/	8	106
23	O=C(OCc1ccc([N+](=O)[O-])cc1)C1CC(=O)N(c2ccccc2)C1 (stereo not given)	0.72	98	i	-5	-3.2	79*	104*
24	C/C(=N\NC(=O)C1(C)CC1(Br)Br)c1ccc(NC(=O)c2ccc(C)o2)cc1 (stereo not given)	0.91	101	i	-3	-1.8	33	100
25	O=C(CSc1nnc(-c2ccccn2)n1Cc1ccco1)c1ccc(-c2ccccc2)cc1	0.95	94	i	5	-0.3	-41	94
26	CC1CCCC(C)N1/N=C/c1cc(Br)c(O)c(Br)c1 (stereo not given)	1.1	95	i	-1	-1.3	16	105
27	CCCCc1c(O)nc(SCC(=O)c2ccccc2)n(-c2ccccc2)c1=O	0.95	109	i	/	/	/	/
28	COc1ccc(-n2c(=O)c3ccccc3n(CC(=O)NC3CCCC3)c2=O)c(OC)c1	0.84	95	i	8	-0.5	/	/
29	CN1C(=O)NC(c2ccc(O)cc2)C2=C1CN(c1ccccc1)C2=O (stereo not given)	0.97	132	i	/	/	/	/
30	CCOc1ccc(N2C(=O)c3cccnc3C2Nc2ccc(OC)cc2)cc1 (stereo not given)	0.86	97	i	0	-0.7	-43	108
31	O=C(CCCCCn1c(=O)[nH]c2ccccc2c1=O)NCCCN1CCN(c2ccccc2F)CC1	/	104	/	-6	-1.1	/	/
32	CC(=O)c1nn(-c2cccc(Br)c2)cc1C(=O)c1ccc(Br)cc1	0.92	97	i	-6	-2.9	33	125
33	CC(C)(C)NC(=O)C(c1ccncc1)N(C(=O)Cn1nnc(-c2ccc(F)cc2)n1)c1cccc(F)c1 (stereo not given)	1.3	100	i	-9	/	/	/
34	O=C(COC(=O)CCc1ccccc1)NC(c1ccccc1)c1ccccc1	1.1	100	i	-9	-0.8	-4	117
35	C=CCN1C(=O)CSc2ccc(C(=O)NCCC3=CCCCC3)cc21	0.61	102	i	-5	-2.2	31	68
36	C/C(=C\C(=O)c1ccc(C)o1)Nc1ccc2c(c1)OCO2	1.1	101	i	-2	-2.6	20	121
37	O=c1c2cn[nH]c2nc(SCc2ccccc2F)n1-c1ccc(Br)cc1	0.75	106	i	-9	-0.5	14	117
38	Cc1ccc(CN2C(=O)N/C(=C\c3ccc(-c4ccc(C(=O)O)cc4C)o3)C2=O)cc1	0.93	96	i	/	/	/	/
39	CCOC(=O)/C(=C\c1ccc([N+](=O)[O-])cc1)C(=O)c1cc(C(C)=O)c(Nc2ccccc2)s1	0.67	97	i	4	-0.9	23	114
40	CCOc1cc(/C=C2/NC(=O)N(Cc3ccccc3F)C2=O)ccc1O	0.79	109	i	3	-1.5	-281	28
41	CCCSc1nnc2[nH]c(=O)cc(N)n12	1	72	i	0	-0.8	-31	115
42	CCS(=O)(=O)c1ccc2oc(SCC(=O)NC(C)C3CC4CCC3C4)nc2c1 (stereo not given)	1.2	101	i	0	-0.2	16	50
43	COc1ccc(CCNc2oc(Cc3ccccc3)nc2C#N)cc1OC	0.77	101	i	-7	1.0	36	93
44	COCC(C)n1c(SCC(=O)c2cc(C)n(C)c2C)nc2ccccc2c1=O (stereo not given)	0.97	96	i	-3	/	/	/
45	Cc1ccc(N/C=C/C(=O)c2ccc(C)cc2)cc1	0.82	96	i	-6	-1.2	4	114
46	Cc1ccc(C(=O)N/C(=C/c2ccco2)C(=O)NCCCn2ccnc2)cc1	0.98	91	i	-2	-0.8	43	89
47	c1cn2cc(CN3CCOCC3)nc2s1	1	131	i	-4	-3.2	-71	93
48	CS(=O)(=O)N(CC(=O)Nc1c(F)cccc1F)c1cccc([N+](=O)[O-])c1	1	98	i	2	-2.5	41	115
49	Oc1[nH]c2ccccc2c1N=Nc1nc(Nc2ccccc2)nc(N2CCOCC2)n1	0.62	92	i	/	/	/	/
50	CCCSc1nc2sc3c(c2c(=O)n1CC)CC(C)(C)OC3	1.1	115	i	/	/	/	/

(cont.)
cpd	molecule	HSV augment primary fold	RGS16-Gao HTS	HSV augment	PKD1 inh	GALR2 ag	Insulin prom inh	Insulin prom inh cell count
51	O=C1c2cccc3cccc(c23)C(=O)N1c1nccs1	0.88	108	i	2	-1.4	-18	129
52	COc1ccc(OC)c2c1sc(=NC(=O)C1COc3ccccc3O1)n2C (stereo not given)	1.1	87	i	/	/	/	/
53	CN(C)CCCNCCCNC(=O)c1ccccn1	0.84	113	i	-6	-0.4	/	/
54	Cc1ccc(C)c2sc(N)nc12	1.1	110	i	-5	/	-27	139
55	CC(C)CC1(C(=O)NCCN2CCOCC2)C=CCN1C(=O)c1ccccc1 (stereo not given)	1	106	i	-1	-0.7	0	113
56	O=C(CCN1CCN(CCO)CC1)Nc1ccc(Br)cc1	0.97	93	i	-14	/	/	/
57	CCOC(=O)N1CCN(C(=O)c2cc(OC)cc(OC)c2)CC1	0.94	103	i	-10	-0.8	-16	119
58	O=C(CCC(=O)OCC(=O)c1cccc([N+](=O)[O-])c1)NC1CCCCC1	1.1	101	i	/	/	/	/
59	CCOC(=O)c1ccc(N=c2sc(C(=O)OC)cc(=O)n2-c2ccc(C(=O)OCC)cc2)cc1	0.79	90	i	-9	-1.7	10	139
60	Cn1nc2c3ccccc3n(Cc3ccccc3)c2nc1=S	0.95	94	i	/	/	/	/
61	COc1ccc(N2CCN(C(=O)c3ccc(C)cc3)CC2)c([N+](=O)[O-])c1	0.93	109	i	-12	0.0	-30	164
62	N/C(=N\OCC(=O)Nc1ccccc1)c1nonc1N	1.1	101	i	-7	-1.1	18	57
63	CC(C)[C@H](NC(=O)C1CCCC1)c1nc2ccccc2[nH]1	0.91	101	i	-2	/	/	/
64	C=CCOC(=O)C1=C(C)OC(N)=C(C#N)C1c1ccoc1 (stereo not given)	/	93	?	-4	-0.2	-60	68
65	CC(C)C[C@H](NC(=O)c1[nH]cnc1C(=O)N[C@@H](C)c1ccccc1)C(=O)OCc1ccccc1	0.59	107	i	/	/	/	/
66	C/C(Cn1nnc2ccccc21)=N\NC(=O)c1ccc(Br)cc1	1.1	96	i	-7	/	-47	136
67	COc1ccc(S(=O)(=O)Nc2cccc(F)c2C)cc1C(=O)N1CCOCC1	0.73	101	i	-2	/	/	/
68	CCc1nc(CN2CCN(c3ccc(C(F)(F)F)cn3)CC2)c(C)[nH]1	0.87	102	i	/	/	/	/
69	O=C(CSc1nc2ccccc2s1)Nc1ccc(Cl)c(C(=O)O)c1	0.96	89	i	2	/	/	/
70	CCOC(=O)C1C(c2ccccc2Cl)NC(=O)N(C)C1(O)C(F)(F)F (stereo not given)	1.1	102	i	-10	-1.0	8	70
71	Cc1cccc(C)c1NC(=O)COC(=O)c1ccc(N2CCCC2)c([N+](=O)[O-])c1	0.97	106	i	4	4.3	21	114
72	O=C(CSCc1ccc(F)cc1)NCc1ccc(F)cc1	1	100	i	1	/	0	60
73	COc1ccc(CN=CC2=C(O)CNC2=O)cc1OC	0.83	107	i	-1	-4.3	/	/
74	CC1=C(C(=O)OC(C)C)C(c2ccc(F)cc2)NC(=O)N1 (stereo not given)	0.89	96	i	0	-2.4	14	56
75	CCOC(=O)/C(C#N)=C\c1c(OCC)n(CC)c2ccccc12	1	99	i	6	0.0	3	125
76	O=C(COc1ccc(Cl)cc1)N1CCN(c2cccc(C(F)(F)F)c2)CC1	1	107	i	2	0.8	-7	126
77	CCN1CCN(CCCOc2ccccc2-c2ccccc2)CC1	1.1	96	i	2	/	/	/
78	Cc1ccc(CCNC(=O)C2CCN(C(=O)N(C)C)CC2)cc1	1.1	101	i	-3	-1.4	61	116
